Screening data deposited in PubChem by several laboratories.
Arbovirus inh – blocks arbovirus infection; arbovirus infection cell-based antiviral screen; inhibition, % at 10 µM; 0.37% of 200,000 active;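 active means inhibition from about 30%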;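 further: bluetongue infection of BSR cells; cell survival read as ATP light after 72 h; 0% = infected wells without compound and 100% = uninfected wells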
RecA splice inh – inhibitors of M. tuberculosis RecA intein splicing; P9WHJ3; cell-free RecA intein splicing, fluorescence; inhibition, %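 (about 9 µM by stock and volumes)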; 0.75% of 290,000 active; in the data active means inhibition above about 30%; inconclusive means no clear call, values can overlap the other calls;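 further: 0% = vehicle wells and 100% = reference inhibitor control wells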
Target sequence (P9WHJ3 whole entry, looked up, canonical isoform): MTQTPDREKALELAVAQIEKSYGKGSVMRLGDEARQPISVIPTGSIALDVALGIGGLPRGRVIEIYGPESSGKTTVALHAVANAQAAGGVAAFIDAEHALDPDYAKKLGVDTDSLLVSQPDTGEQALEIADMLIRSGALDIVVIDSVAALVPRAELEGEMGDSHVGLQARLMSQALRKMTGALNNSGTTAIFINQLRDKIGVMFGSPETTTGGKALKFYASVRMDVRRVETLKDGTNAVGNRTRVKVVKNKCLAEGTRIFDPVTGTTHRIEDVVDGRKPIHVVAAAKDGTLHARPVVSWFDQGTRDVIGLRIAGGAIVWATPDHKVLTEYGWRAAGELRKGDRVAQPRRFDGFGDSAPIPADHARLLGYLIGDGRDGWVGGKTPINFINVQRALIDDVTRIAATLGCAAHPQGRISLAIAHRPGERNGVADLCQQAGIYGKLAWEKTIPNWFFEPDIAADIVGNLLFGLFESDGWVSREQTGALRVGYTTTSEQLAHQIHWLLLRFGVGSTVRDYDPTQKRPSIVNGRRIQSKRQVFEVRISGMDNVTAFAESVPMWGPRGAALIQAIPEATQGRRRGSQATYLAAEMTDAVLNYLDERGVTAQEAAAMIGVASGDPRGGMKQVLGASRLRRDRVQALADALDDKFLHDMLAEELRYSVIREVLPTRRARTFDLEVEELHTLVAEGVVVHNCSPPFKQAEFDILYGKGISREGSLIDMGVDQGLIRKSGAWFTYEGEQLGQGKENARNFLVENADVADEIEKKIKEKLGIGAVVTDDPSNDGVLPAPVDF
Mtb H37Rv – M. tuberculosis H37Rv growth inhibitors, H37Rv strain (AID 1626); 0.95% of 220,000 active; M. tuberculosis H37Rv growth inhibition; higher % means a stronger effect; one-dose inhibition, % at 10 µM; IC50 in µM for titrated hits;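 active means confirmed in a dose series; inconclusive means inhibition above 80% but not taken into the dose series; inactive means below 80% or under 30% at every dose of the series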;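 further: bacteria incubated seven days before Alamar blue readout; 0% = bacteria only wells and 100% = bacteria with antibiotic wells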
YopH inh – YopH (Yersinia) phosphatase inhibition; fluorescence Ex485/Em525; inhibition, %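 (about 10 µM by stock and volumes)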; 0.16% of 140,000 active; AID 898;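 active means inhibition of 50% or more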;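 further: controls were vehicle for no effect and minimum signal wells for full effect; inactives centre near -20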
Mtb bLac sens – beta-lactam sensitization of Mtb H37Rv. 0.27% of 330,000 active. M. tuberculosis H37Rv growth with meropenem, percent inhibition; hits of this screen are not shown here. AID 434955. inhibition, % at 25 µM;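 active means about 74% or more and at least 40 points above the plate without the antibiotic, then above 30% in a dose series; inconclusive means first-round hits that could not be retested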;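 further: growth measured after seven days incubation then overnight dye step; 0% = bacteria only wells and 100% = bacteria with antibiotic; twin plates without the antibiotic show which effects depend on it; some results filed as inactive read as strong as hits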
Arbovirus inh repeat – recorded beside Arbovirus inh, whose call it bears; inhibition, %; measured here: 10K subset replicate screen; many hits read low in the repeat;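 first of two repeat runs on a subset; 0% = infected and 100% = uninfected wells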
* = called active by the depositor; u = inconclusive; x = not tested or not shown.

Sample of the layout (14 entries):
SMILES | Arbovirus inh | RecA splice inh | Mtb H37Rv | YopH inh | Mtb bLac sens | others
CCOC(=O)N1CCN(C(=O)/C=C/c2ccc([N+](=O)[O-])cc2)CC1 | 4.3 | 0.1 | -2.7% | x | 1.3
N#C/C(=C\c1c(F)cccc1Cl)C(=O)NC1CC1 | x | 5.5 | x | x | -3.0
O=C(CN(Cc1ccc(F)cc1)C(=O)c1ccco1)NCc1ccc(F)cc1 | -1.5 | 0.4 | -4.2% | 4.2 | -13.0
CC(C)N(C(=O)Nc1ccc2nsnc2c1)C(C)C | -19.2 | 26.7 | -2.8% | x | 0.6
O=C(N/N=C/c1ccc([N+](=O)[O-])o1)c1cn2ccc3ccccc3c2n1 | x | x | u | x | 99.6
CC(Oc1ccccc1)C(=O)Nc1nnc(S(=O)(=O)N2CCCCC2)s1 (centres undefined) | x | 0.7 | x | x | 2.2
CN(c1cccc(NC(=O)COc2ccc(Cl)cc2Cl)c1)S(C)(=O)=O | 5.2 | 1.0 | -5.6% | -15.3 | -6.5
Cc1ccccc1C(=O)N1CCN(c2ccc([N+](=O)[O-])c(N3CCOCC3)c2)CC1 | -2.5 | 5.4 | 0.6% | -14.7 | -4.7
COc1ccc(N2CCCn3c2nc2c3c(=O)n(Cc3ccc(C)cc3)c(=O)n2C)c(OC)c1 | 3.5 | 0.5 | 10.8% | x | 10.7
COc1ccccc1NC(=O)NC1(C(=O)N2CCN(C)CC2)CCCCC1 | x | -0.2 | x | x | -5.6
C=C(C)c1cccc(C(C)(C)NC(=O)NCCN(CC)CC)c1 | 6.1 | -0.8 | 2.7% | x | 2.0
CCC(C)(C(=O)NC1CCCCC1)N(Cc1ccco1)C(=O)CNC(=O)c1ccccc1 (centres undefined) | 0.9 | 1.1 | -1.9% | 6.5 | -2.5 | Arbovirus inh repeat=-0.5
COc1ccc(/C=C/C(=O)c2ccc(OC)cc2OC)c(OC)c1 | 12.1 | 4.3 | 5.0% | x | 82.5
O=C(O)c1cc(N/N=C/c2ccncc2)ccc1Cl | x | -0.4 | -1.1% | x | 2.8

The list itself, from the first entry:
SMILES | Arbovirus inh | RecA splice inh | Mtb H37Rv | YopH inh | Mtb bLac sens | others
CCOC(=O)N1CCN(C(=O)/C=C/c2ccc([N+](=O)[O-])cc2)CC1 | 4.3 | 0.1 | -2.7% | x | 1.3
N#C/C(=C\c1c(F)cccc1Cl)C(=O)NC1CC1 | x | 5.5 | x | x | -3.0
O=C(CN(Cc1ccc(F)cc1)C(=O)c1ccco1)NCc1ccc(F)cc1 | -1.5 | 0.4 | -4.2% | 4.2 | -13.0
CC(C)N(C(=O)Nc1ccc2nsnc2c1)C(C)C | -19.2 | 26.7 | -2.8% | x | 0.6
O=C(N/N=C/c1ccc([N+](=O)[O-])o1)c1cn2ccc3ccccc3c2n1 | x | x | u | x | 99.6
CC(Oc1ccccc1)C(=O)Nc1nnc(S(=O)(=O)N2CCCCC2)s1 (centres undefined) | x | 0.7 | x | x | 2.2
CN(c1cccc(NC(=O)COc2ccc(Cl)cc2Cl)c1)S(C)(=O)=O | 5.2 | 1.0 | -5.6% | -15.3 | -6.5
Cc1ccccc1C(=O)N1CCN(c2ccc([N+](=O)[O-])c(N3CCOCC3)c2)CC1 | -2.5 | 5.4 | 0.6% | -14.7 | -4.7
COc1ccc(N2CCCn3c2nc2c3c(=O)n(Cc3ccc(C)cc3)c(=O)n2C)c(OC)c1 | 3.5 | 0.5 | 10.8% | x | 10.7
COc1ccccc1NC(=O)NC1(C(=O)N2CCN(C)CC2)CCCCC1 | x | -0.2 | x | x | -5.6
C=C(C)c1cccc(C(C)(C)NC(=O)NCCN(CC)CC)c1 | 6.1 | -0.8 | 2.7% | x | 2.0
CCC(C)(C(=O)NC1CCCCC1)N(Cc1ccco1)C(=O)CNC(=O)c1ccccc1 (centres undefined) | 0.9 | 1.1 | -1.9% | 6.5 | -2.5 | Arbovirus inh repeat=-0.5
COc1ccc(/C=C/C(=O)c2ccc(OC)cc2OC)c(OC)c1 | 12.1 | 4.3 | 5.0% | x | 82.5
O=C(O)c1cc(N/N=C/c2ccncc2)ccc1Cl | x | -0.4 | -1.1% | x | 2.8
CCOc1ccc(/C=N/NC(N)=S)cc1 | -7.2 | -3.8 | 33.7% | -16.4 | 96.0
O=c1[nH]c(=O)n(-c2cccc3ccccc23)c(O)c1C=NCCCn1ccnc1 | -3.0 | 0.6 | -1.1% | -14.8 | -8.8
Cc1ccc(NC(=O)C(=S)NCc2ccco2)cc1 | 0.2 | 5.2 | 7.7% | -36.8 | -1.6
COc1ccc(C(=O)C2CCCN(C(=O)c3cccnc3SC)C2)c(C)c1 (centres undefined) | -1.2 | -5.2 | -5.7% | x | 4.9
O=C(CSc1ccc([N+](=O)[O-])cc1)NCC1CCCCC1 | 3.8 | -1.3 | -1.8% | x | -5.8
CCn1c(=O)c2c(nc(SCC(=O)N3CCCC(C)C3)n2C)n(C)c1=O (centres undefined) | x | -5.9 | x | x | 6.5
COc1ccccc1CN1C(=O)[C@@H]2C(CCC(N)=O)NC3(C(=O)Nc4c3ccc(Cl)c4C)[C@@H]2C1=O (some centres undefined) | 2.4 | 1.9 | -6.0% | 6.5 | -3.3
OC12CC3C[C@H](C1)C(N1CCOCC1)[C@@H](C3)C2 (some centres undefined) | x | -1.8 | x | x | -4.0
O=C(Nc1ccc2c(c1)OCCO2)C1CCCN1C(=O)Nc1ccc(F)cc1 (centres undefined) | x | 0.8 | x | x | 2.6
CC(C)(O)C1Cc2cc(/C=C/C(=O)O)c(O)cc2O1 (centres undefined) | 7.0 | -5.0 | 1.2% | x | x
O=C(CCS(=O)(=O)c1cccc2nsnc12)NCc1ccccc1Cl | 7.2 | x | -6.4% | -19.8 | 6.1
COc1cccc(C2C3=C(N=c4s/c(=C\c5ccccc5O)c(=O)n42)c2ccccc2CC3)c1OC (centres undefined) | 14.8 | 5.6 | 5.2% | x | 2.8
CC(C)(C)c1cc(NC(=O)COc2ccc(Br)cc2)n(-c2ccccc2)n1 | -1.6 | 13.6 | -8.7% | -5.1 | 1.3
CCN(Cc1cnn(C)c1)Cc1nc(C2(c3ccc(C)cc3)CCCC2)no1 | 3.5 | 0.5 | 16.1% | x | -1.1
CN(C)CCNC(=O)/C=N/O | 1.8 | -3.6 | -1.9% | 4.4 | 0.2
CCCCOC(=O)C1=C(C)NC(=O)NC1c1ccc(N(C)C)cc1 (centres undefined) | x | -1.4 | x | x | 15.8
Clc1ccc(-c2cc(CSc3cccc(Cl)c3)on2)cc1 | 7.9 | 2.6 | -3.7% | -31.6 | 0.7
COC(=O)c1nc2nc(C)cc(C(F)(F)F)n2n1 | 5.1 | -0.7 | 4.4% | -26.9 | -9.5
Cc1cc(C(=O)NNC(=O)C2CCCC2)c(C)o1 | 4.6 | -1.0 | 1.3% | x | -5.0
c1ccc(Cn2nnnc2C(c2ccccc2)N2CCN(c3nc4ccccc4s3)CC2)cc1 (centres undefined) | 29.0 | -10.9 | 20.3% | -1.9 | 0.4
COc1cc(/C=N/N=C2/C(=O)Nc3ccccc32)cc(OC)c1O | -9.9 | -2.1 | -1.0% | -19.7 | 4.0
Cc1cccc(NC(=O)c2ccc(CN3CCN(Cc4ccccc4)CC3)cc2)c1 | -5.5 | -0.5 | -1.1% | x | 0.1
COc1ccc(NC(=O)CC2C(=O)N(C)C(=S)N2Cc2ccncc2)cc1 (centres undefined) | 3.8 | 0.7 | -1.6% | x | -9.3
CCOc1ccc2nc(NC(=O)CSc3cn[nH]n3)sc2c1 | x | 0.5 | x | x | 98.3
Cc1oc(-c2cccs2)nc1CN1CCC(c2ccccc2)CC1 | 26.2 | 0.4 | 8.3% | x | -0.1
O=C(Oc1cccc2c(=O)[nH]ccc12)c1ccccc1 | 8.8 | x | 4.8% | -40.4 | -1.4
COc1ccccc1Nc1ncnc2c1c(C)c(C)n2CCCN(C)C | x | -1.4 | x | x | u
CCOc1ccc(NC(=O)CN(C)C(=O)c2cc(S(=O)(=O)N3CCCCC3)ccc2Cl)cc1OCC | x | 0.7 | x | x | 59.4
O=S(=O)(c1ccc(NC(=S)N/N=C/c2cccc(Oc3ccccc3)c2)cc1)N1CCOCC1 | -10.1 | -1.6 | 1.4% | x | -1.7
COc1cc(-c2noc(C)c2C#CC2(N)CCCCC2)cc(OC)c1OC | x | 2.9 | x | x | 76.6
CN(C)CC(O)COc1cccc(OCC(O)CN(C)C)c1 (centres undefined) | -1.8 | -3.9 | x | -48.8 | -3.1
COc1ccccc1CNC(=O)COC(=O)/C=C/c1cccs1 | 2.4 | 2.2 | 0.3% | -30.3 | 1.4
CCCCC(=O)Nc1cc(OCC)c(NC(=O)c2ccccc2[N+](=O)[O-])cc1OCC | -1.5 | -1.1 | 4.3% | -31.5 | 5.5
CCOC(=O)C(C)(C)N(Cc1cccc(C)c1)S(=O)(=O)c1ccc(Cl)c([N+](=O)[O-])c1 | 0.9 | 4.2 | 5.0% | -10.2 | -3.8
O=C(Cc1ccccc1)N1CCC(c2nc3ccccc3[nH]2)CC1 | 1.0 | -2.0 | -1.7% | -40.3 | -6.0
CCCCN(C(=O)CN1C(=O)C2CCCCC2C1=O)c1c(N)n(CCC)c(=O)[nH]c1=O (centres undefined) | x | -3.8 | x | x | -8.1
O=C1c2ccccc2C(=O)N1CCCCN(C(=O)c1ccc([N+](=O)[O-])cc1)c1ccc(Cl)cc1 | -13.4 | 6.9 | -7.6% | -24.4 | -8.7
CC(C)c1ccc(NC(=O)CSc2nc(=O)n(CCCN3CCOCC3)c3c2CCC3)cc1 | x | 3.9 | x | x | -14.1
O=C(O)CNC(=O)CC1S/C(=N/N=C/c2ccccc2O)NC1=O (centres undefined) | 10.3 | -9.3 | 1.9% | x | -0.8
CCC(=NCCO)c1c(O)n(C2CCCCC2)c(=O)[nH]c1=O | 13.6 | -0.1 | 3.5% | -43.3 | 1.7
CCC(C)N1C(=O)CCC1C(=O)N1CCN(c2ccccc2F)CC1 (centres undefined) | 0.8 | 0.1 | 0.6% | -61.0 | -8.9
CC1(C)S[C@@H]2[C@H](NC(=O)C(NC(=O)N3CCNC3=O)c3ccccc3)C(=O)N2[C@H]1C(=O)O (some centres undefined) | x | 1.4 | x | x | 0.4
CCc1cc2cc3c(cc2nc1SCC(=O)Nc1cc(C)on1)OCO3 | -7.3 | -1.8 | -2.6% | -12.6 | 48.0
O=[N+]([O-])c1ccc(-c2csc3[n+]2CCS3)cc1 | -7.8 | -0.8 | -2.3% | 50.9* | -3.0
CC1CCN(CCCCOc2ccc(C(=O)c3ccccc3)cc2)CC1 | -8.2 | -1.7 | 71.0% | -0.6 | 76.9
Cc1ccccc1C(=O)c1cccn1CC(=O)NCCCN1CCCCC1 | x | 0.4 | x | x | 2.5
The list continues.
SMILES | Arbovirus inh | RecA splice inh | Mtb H37Rv | YopH inh | Mtb bLac sens | others
CN(C)C=Nc1c(C(=O)c2ccccc2)sc2nccc(N(C)C)c12 | 8.6 | -0.7 | 4.3% | 0.0 | -3.1
O=C(O)c1cccnc1SCc1cn2cc(Cl)ccc2n1 | x | -3.0 | -2.5% | x | -5.8
CC1CC(C)CN(C(=O)c2ccncc2)C1 (centres undefined) | 7.8 | -0.9 | -10.8% | -12.8 | -10.7
COc1ccc(N=C/C=C2\C=C(c3ccccc3)OC(C)(C)O2)cc1 | -5.7 | -8.5 | 76.4% | -2.8 | 97.3
CCOC(=O)c1c(NC(C)=O)sc2c(O)cccc12 | 0.0 | 0.3 | 3.0% | -17.1 | 27.8
Cc1cc(C(=O)Nc2ccc(F)cc2C)n(-c2ccccc2)n1 | x | 1.4 | -0.2% | x | -3.6
CCCCNC(=O)C1CCCN1C(=O)NC1CCCCC1 (centres undefined) | -4.7 | 1.5 | -7.6% | -4.8 | -3.7
CC(C)(C)c1ccc(-c2n[nH]c(=S)n2Cc2ccccc2)cc1 | x | -1.4 | x | x | 2.8
Cc1cc(NS(=O)(=O)c2ccc(NC(=O)c3ccc([N+](=O)[O-])c(Cl)c3)cc2)no1 | x | -4.6 | x | x | 4.9
CCOC(=O)c1nn(-c2ccccc2)c2nnc(Cc3ccccc3)c(=O)n12 | 3.6 | -0.7 | -2.2% | -40.2 | -4.2
O=C(c1ccc(F)cc1)N1CCN(c2ccc([N+](=O)[O-])c(N3CCCCC3)c2)CC1 | 4.0 | x | 0.6% | -26.3 | -2.0
COC(=O)C1=CN(c2cc(C)cc(C)c2)C=C(C(=O)OC)C1c1ccc(OC)c(O)c1 | x | -5.6 | x | x | 9.9
Cc1ccc(N2C(=O)CC(C)CC2=O)cc1 | x | -3.5 | x | x | -5.2
COc1ccc(N2C(=O)CSC2c2ccc3c(c2)OCO3)c(OC)c1 (centres undefined) | -12.5 | 1.8 | -1.0% | -33.0 | 8.7

An excerpt; count on the stated rates, not on these rows.
